CtBP-E1A inh: inhibitors of CtBP/E1A interaction; AlphaScreen GST-E1A/His-CtBP binding, 1536-well; hits give low values; control for the full effect not named in the record; activity change, % (concentration not given with the values); actives 0.49% (n = 340,000); AID 651724; in the data active means activity change below about -65%; inconclusive means about -30% to -65%; inactive means above about -30%; note: % is set by controls: 0 for no effect and ±100 for the full control effect
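GST-E1A and His-tagged CtBP (125 nM each as 5X stock) were preincubated with pin-transferred compound for 2 h at 37 °C in the dark, then glutathione donor and nickel acceptor beads were added for 1 h before AlphaScreen reading.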
TRPV1 potentiator: potentiators of human vanilloid receptor 1 (TRPV1); Q8NER1; TRPV1-expressing cells, Fluo-8 calcium influx, capsaicin EC20 potentiation; host cell line not named in the record; control for the full effect not named in the record; potentiation, % at 8.33 µM; actives 0.02% (n = 320,000); AID 540277; active means potentiation above 80%; inconclusive means 30% to 80%; inactive means below 30%; note: 0% is about no effect
Target sequence (Q8NER1 whole entry, looked up): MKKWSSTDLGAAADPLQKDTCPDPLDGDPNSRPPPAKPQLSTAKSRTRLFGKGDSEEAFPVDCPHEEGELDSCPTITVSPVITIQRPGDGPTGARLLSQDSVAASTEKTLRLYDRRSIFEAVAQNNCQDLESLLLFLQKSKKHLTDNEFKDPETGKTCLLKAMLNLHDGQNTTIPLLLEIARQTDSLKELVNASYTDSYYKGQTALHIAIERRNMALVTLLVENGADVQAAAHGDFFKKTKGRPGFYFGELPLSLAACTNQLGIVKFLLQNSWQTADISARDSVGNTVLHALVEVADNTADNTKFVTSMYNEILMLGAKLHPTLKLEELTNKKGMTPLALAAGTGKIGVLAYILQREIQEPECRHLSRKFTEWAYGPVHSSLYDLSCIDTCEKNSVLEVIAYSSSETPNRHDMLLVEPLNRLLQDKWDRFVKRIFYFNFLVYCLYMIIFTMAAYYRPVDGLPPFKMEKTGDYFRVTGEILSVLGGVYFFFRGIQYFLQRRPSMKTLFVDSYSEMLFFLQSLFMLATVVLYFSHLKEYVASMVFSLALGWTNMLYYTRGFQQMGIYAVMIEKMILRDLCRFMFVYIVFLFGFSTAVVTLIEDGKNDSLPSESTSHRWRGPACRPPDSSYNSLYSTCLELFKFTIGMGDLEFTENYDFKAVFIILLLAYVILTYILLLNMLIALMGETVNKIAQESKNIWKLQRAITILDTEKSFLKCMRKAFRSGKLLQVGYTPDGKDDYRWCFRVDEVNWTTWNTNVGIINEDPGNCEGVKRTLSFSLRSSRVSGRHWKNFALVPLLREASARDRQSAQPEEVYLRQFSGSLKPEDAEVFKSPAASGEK
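Fluo-8 calcium influx in TRPV1-expressing cells, kinetic read (ex 480/em 520 nm). Compound added and read 3 min for agonist activity, followed by capsaicin at EC20 final and 2 min further read for enhancement.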
Sfp PPTase inh: Sfp phosphopantetheinyl transferase inhibition | Q9F4F7 | Biochemical Sfp PPTase activity, qHTS | Potency, µM, without a hit: max response, negative = inhibition, usual class: inhibitors | actives 3.5% (n = 310,000); active = well fitted inhibition curve with a large enough effect; inconclusive = small, poorly fitted or top-dose-only effect, or another doubt; inactive = no such curve, though single readings can be large or run the other way;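 note: the enzyme is Sfp with the accession as filed and its product quenches rhodamine fluorescence; potency is the fitted concentration of half-maximal effect; 0% = enzyme reaction without inhibitor and -100% = no enzyme wells; top concentration of the series not given in the record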
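After 15 min at room temperature with compound, 15 nM Sfp received 5 uM rhodamine-CoA plus 12.5 uM BHQ-2-ybbR (50 mM Hepes pH 7.6, 10 mM MgCl2). Rate came from the fluorescence difference over 30 min, ex 525/em 598 nm.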
D2 agonist: human D2 receptor agonism in beta-arrestin assay | P14416 | DiscoveRx PathHunter D2 beta-arrestin, luminescence, 90 min; 100% = 57 uM dopamine signal | activation, % (no concentration beside the values) | actives 0.084% (n = 360,000) | AID 624465; in the data active = activation above about 40%; inconclusive = about 15% to 40%; inactive = below about 15%; note: compound concentration not given in the record; the text of the record calls up to 30% inactive
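Agonist mode: compounds alone added to overnight-plated D2 PathHunter cells for 90 min at 37 C, with 57 uM final dopamine (EC100) defining full response. Beta-arrestin recruitment detected by chemiluminescent reagent, read after 1 h at ambient temperature.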
Six1-Eya2 inh: inhibitors of human Six1/Eya2 interaction. actives 0.56% (n = 360,000). activity change, % (test concentration not listed). AlphaScreen GST-Six1/His-Eya2 binding, biochemical; hits give low values; control for the full effect not named in the record. AID 651725; in the data active = activity change below about -65%; inconclusive = about -30% to -65%; inactive = above about -30%; note: % is set by controls: 0 for no effect and ±100 for the full control effect; compound concentration not given in the record
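Homogeneous AlphaScreen proximity assay pairing GST-Six1 with His-tagged Eya2 (added as 5X mix: 250 nM and 500 nM) in 50 mM Tris pH 8.0, 300 mM NaCl, 1 mM TCEP. Glutathione donor and nickel acceptor beads; 1 h, 37 °C, dark.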
PINK1 expr mod: changes PINK1 expression | PINK1 immunofluorescence, high-content cytometry, 24 h | Potency, µM (top dose mostly 76.6 µM), for inactives: at the top dose activation (PINK1 increase), hits mostly activators | actives 0.2% (n = 410,000) | AID 624263; active = well fitted activation curve with a large enough effect; inconclusive = small, poorly fitted or top-dose-only effect; inactive = flat fitted curve, though single readings scatter; cell line not stated here;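 note: potency is the fitted concentration of half-maximal effect; % of control where 0% means no effect; nearly all actives have a fitted effect of over 65% in size; a mitochondrial uncoupler was the plate control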
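PINK1 protein level read as immunofluorescence by microplate cytometer in a fixed, stained stable cell line after 24 h exposure to five compound concentrations, with CCCP as control.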
D2 potentiator: potentiates the human D2 dopamine receptor allosterically. potentiation, % (test concentration not listed). AID 624464. DiscoveRx D2 beta-arrestin cells, luminescence, 90 min; 100% = 57 uM dopamine signal. actives 0.23% (n = 360,000). P14416; active = potentiation of 50% or more; inconclusive = 30% to 50%; inactive = 30% or less;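 note: compound concentration not given in the record; tested on top of an EC20 dose of dopamine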
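PathHunter beta-arrestin assay in DiscoveRx D2 cells. Compounds were added with an EC20 of dopamine (50 nM final) for 90 min at 37 deg C. Luminescence was read 1 h after detection reagent, with 57 uM dopamine as the EC100 control.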
* marks the source's active call; other numbers are inactive results; ? = inconclusive; · = not tested or not shown; [ ] = another dose, or the depositor's remark.

SMILES	CtBP-E1A inh	TRPV1 potentiator	Sfp PPTase inh	D2 agonist	Six1-Eya2 inh	PINK1 expr mod	D2 potentiator
COC(=O)C1=C(N)Oc2cc(C)n(CC3CCCO3)c(=O)c2C1c1ccc(Cl)c(Cl)c1 (stereo not given)	-14	17	1%	0.7	-17	-2.5%[38.3 µM]	-3
CC1=NNC(=O)C1Cc1c(Cl)cccc1Cl (stereo not given)	8	·	·	-0.5	4	1.4%	-6
CC(C)C12CN3CC(C(C)C)(CN(C1)C3c1ccccc1O)C2=O (stereo not given)	-2	-2	3%	0.6	-5	-0.8%	14
COCCN(C(=O)CSCC(=O)Nc1cccc(C)c1)c1c(N)n(Cc2ccccc2)c(=O)[nH]c1=O	3	2	·	-2.8	-2	1.1%	5
CCN(CC)CCCNC(=O)CN1C(=O)CSc2ccc(S(=O)(=O)N3CCOCC3)cc21	8	2	21%	-1.1	7	1.4%	-2
CCOC(=O)C1=NOC(CNC(=O)C2=NOC(CNC(=O)c3c(-c4ccccc4Cl)noc3C)C2)C1 (stereo not given)	5	·	8%	1.1	12	-0.5%	-14
O=CNCc1nc2ccccc2n1CCCc1ccccc1	·	2	18%	0.2	11	-1.4%	-4
COc1ccccc1CNC(=O)CSc1n[nH]c(N)n1	3	-3	-10%	-2.4	3	2.0%	-4
Cc1cccc(N2CC(c3nc4ccccc4[nH]3)CC2=O)c1 (stereo not given)	4	-9	14%	-0.5	6	0.0%	-9
Cc1ccc(C2(C)NC(=O)N(CC(=O)NNC(=O)c3ccoc3C)C2=O)cc1 (stereo not given)	4	3	·	-8.6	-2	0.1%	-9
Cc1[nH]n(-c2ccccc2)c(=O)c1C(=O)c1cccc(F)c1	·	9	9%	-5.8	11	-1.6%	-16
COc1cccc(-c2cc(C(=O)NCC3CCCO3)c3cc(Br)cc(C)c3n2)c1 (stereo not given)	2	-2	-6%	2.2	3	9.5%	1
O=c1c2c([nH]c3ccc(Br)cc13)CCCC2	-5	-7	9%	-0.7	6	-0.1%	-9
O/N=C/Cc1[nH]c2ccccc2c1-c1ccccc1	-10	-1	-5%	8.6	-8	0.2%	-7
COc1ccccc1N1CCN(CC(=O)c2c(C)[nH]c3cc(C)ccc23)CC1	-12	-5	5%	-3.4	-3	0.7%	-14
CC(=O)c1ccc2c(c1)C1C=CCC1C(c1cc3c(cc1Br)OCO3)N2 (stereo not given)	-2	16	·	1.1	-7	6.5%	-7
CC(C)CCSc1nnc(N)s1	·	-6	23%	4.9	3	-0.6%	8
CNc1ccc(N=Nc2cccc3ncccc23)cc1	?	·	·	-8.8	?	4.0%	-22
CC(C)Cc1cc(C(=O)NCCCN2CCOCC2)no1	2	-10	7%	0.4	0	-0.8%	-6
COc1ccc(/C=N/OCC(=O)NC(c2ccccc2)c2ccccc2)c(OC)c1	-2	23	6%	-1.5	-6	9.5%	-11
Cc1ccc(C)c(NC(=S)NC(C)C(c2ccccc2)N2CCN(C)CC2)c1 (stereo not given)	-4	-25	21%	-11	4	-1.4%	-13
CCC(C(=O)OCC(=O)Nc1cc(Cl)ccc1Cl)c1ccccc1 (stereo not given)	38	-1	6%	-3.4	30	6.1%	-2
O=C(c1ccccc1F)N(Cc1ccc(F)cc1)C1CCS(=O)(=O)C1 (stereo not given)	0	?	11%	-0.3	0	2.1%	-25
CC(=O)Nc1ccc(CN2C(=O)C(Cc3ccccc3)ON=C2c2cccc(F)c2)cc1 (stereo not given)	4	·	·	5.1	-5	0.7%	6
O=C(c1cc2c(=O)n3ccccc3nc2s1)N1CCN(c2cccc(Cl)c2)CC1	-11	6	1%	-3.2	0	2.1%	-4
CCOC(=O)N1CCN(C(c2ccnc3ccccc23)c2nnnn2-c2c(C)cccc2C)CC1 (stereo not given)	0	·	·	·	18	?	·
COc1ccccc1NS(=O)(=O)c1ccc2ccccc2c1	2	?	6%	-3.9	2	4.5%	-3
O=C(NCc1ccc2c(c1)OCO2)C1CCC(CNc2c(N3CCCCC3)c(=O)c2=O)CC1 (stereo not given)	-1	?	37%[activator]	-6.3	-22	-0.1%	-6
O=C(NCc1cccs1)C1CCN(S(=O)(=O)c2ccccc2F)CC1	-13	-20	-5%	-3.6	0	0.6%	-9
O=C(COC(=O)c1cccc([N+](=O)[O-])c1)NCc1cccs1	-4	-10	22%	1.5	7	1.7%	-24
O=C(NCCc1ccc([N+](=O)[O-])cc1)c1ccccc1	7	-22	9%	-3.1	-1	-0.9%	-6
CCOc1ccccc1N1CC(C(=O)N(CC)CC(=O)Nc2ccc3c(c2)OCCO3)CC1=O (stereo not given)	-15	-1	·	0.9	1	-2.2%	-12
COc1ccc(C(=O)NN)cc1COc1ccc(Br)cc1	-20	18	0%	-2.8	-4	8.0%	18
COc1ccccc1N1CCN(C(=O)c2cc(-c3ccc(F)cc3)[nH]c2C)CC1	-2	6	0%	-1.1	-7	-0.9%	-18
C#Cc1ccc([C@@H]2C=C(C(=O)NCc3ccccc3)O[C@H](OCC)[C@H]2CCCO)cc1	1	-10	2%	-5.8	3	-1.4%	-3
O=C(Nc1ccccc1)c1nc[nH]c1C(=O)NCc1ccccc1	-7	-20	·	-7.1	-9	5.4%	-9
Cc1cc(C)c(S(=O)(=O)Nc2cccnc2)c(C)c1	0	3	-11%	-4.8	7	10%[38.3 µM]	-1
Cc1c(NC(=O)CSCc2ccc(Cl)cc2Cl)cccc1C(=O)O	5	-2	14%	1.6	4	-1.3%	-2
CC(=O)c1ccc(N2C(=NC(=O)C3CCCCC3)SC3CS(=O)(=O)CC32)cc1 (stereo not given)	2	-5	22%	3.3	6	-0.4%	-2
COCCNC(=O)Nc1ccc2c(c1)N(C)C(=O)c1ccccc1S2	12	0	4%	0.4	-10	-0.3%	0
O=C1C(C=NCc2cccnc2)=C(O)c2ccccc21	0	-7	3%	-5.0	4	0.1%	1
O=S1(=O)CCN2N=C(C3CC3)SC2=N1	-12	-1	19%	-4.6	21	0.5%	-32
Cc1cccc(N=C2Sc3nc4c(C)c(C)ccc4cc3CN2CCN2CCOCC2)c1	-13	?	?	0.0	-12	?	-29
CC(Oc1ccccc1)C(=O)Nc1c2c(nn1-c1ccccc1)CS(=O)C2 (stereo not given)	-4	-1	12%	-1.4	13	-1.0%	-1
CC(=O)Nc1ccc(C(=O)n2nc(C)cc2C)cc1	38	-8	3%	-3.2	27	1.7%[38.3 µM]	-1
Cc1ccccc1/C=N/N=C1/NC(=O)CCS1	0	0	10%	1.1	0	-0.8%	-2
CCOC(=O)C1CCN(C(=O)C(C)Sc2ccc(Cl)cc2)CC1 (stereo not given)	-4	-18	17%	-6.5	9	1.6%	-5
Cc1cc(=O)oc2c(C)c3occc3cc12	-14	7	7%	3.2	-3	-0.3%	-7
O=C(O)c1ccc(CSc2nc3ccccc3[nH]2)cc1	2	2	7%	2.3	10	0.1%	-2
O=C(CSc1nnnn1-c1ccccc1Cl)Nc1ccc2c(c1)OCCO2	1	-9	21%	3.8	11	2.0%	0
Cc1cc(S(=O)(=O)NCC2CCCO2)c(C)cc1Br (stereo not given)	8	0	7%	-1.3	7	0.7%	0
CC(C)CNC(=S)NC1CC2CCCC(C1)N2Cc1ccco1 (stereo not given)	-4	17	13%	0.4	-1	·	-18
O=C(COc1ccc(S(=O)(=O)NC2CCCCC2)cc1)N1CCN(c2cccc(Cl)c2)CC1	-11	7	3%	-0.8	-8	-2.9%[38.3 µM]	-3
C[C@@H](CO)NC(=O)[C@H]1O[C@@H](n2cnc3c(N)ncnc32)[C@H](O)[C@@H]1O	-14	·	·	-4.4	19	2.5%	-6
CCNC(=O)Cn1cc(C(F)(F)F)cc(Cl)c1=O	9	-2	15%	-1.2	7	-0.1%	-1
CCOC(=O)C1CCN(C(=O)CN(c2ccc(OC)c(OC)c2)S(=O)(=O)c2ccccc2)CC1	2	-1	10%	-3.1	3	-1.6%	-8
CCCOc1ccccc1/C=C1/C(=O)ON=C1C	4	8	56µM*	-2.1	2	7.6%	5
CCOC(=O)C1CCN(S(=O)(=O)c2ccc(OC)c(C(=O)N3CCCCC3)c2)CC1	0	0	-5%	-2.8	1	-0.9%	2
COc1ccc(OC)c(N=C(C)C2=C(O)COC2=O)c1	2	5	0%	1.3	-6	10%	18
CC1(C)C(=O)Nc2ccccc2N1C(=O)COC(=O)/C=C/c1ccc(OC(F)F)cc1	6	-20	·	4.2	-11	8.8%	10

Whole records, looked up by structure. Values in the order: CtBP-E1A inh | TRPV1 potentiator | Sfp PPTase inh | D2 agonist | Six1-Eya2 inh | PINK1 expr mod | D2 potentiator
Entry for Cc1ccccc1/C=N/N=C1/NC(=O)CCS1 : 0 | 0 | 10% | 1.1 | 0 | -0.8% | -2
Entry for O=S1(=O)CCN2N=C(C3CC3)SC2=N1 : -12 | -1 | 19% | -4.6 | 21 | 0.5% | -32

Further results.
SMILES	CtBP-E1A inh	TRPV1 potentiator	Sfp PPTase inh	D2 agonist	Six1-Eya2 inh	PINK1 expr mod	D2 potentiator
COc1ccccc1NC1=Nc2cccc3cccc1c23	-5	4	9%	-0.9	-18	4.2%	-26
C/C(=N\NC(=O)CSc1nc(C)cc(C)n1)c1ccc([N+](=O)[O-])cc1	-13	9	-11%	3.1	-8	-1.6%	-6
O=C(Cc1ccsc1)N1CCc2c([nH]c3ccccc23)C1c1ccccn1 (stereo not given)	-12	-3	-15%	-1.8	-3	0.9%	-1
c1ccc(C2=Nn3c(nnc3-c3cccnc3)SC2)cc1	-14	-2	11%	-0.5	-12	-4.5%[38.3 µM]	-9
Cc1ccc(S(=O)(=O)N2CCCCC2)cc1NCC(=O)Nc1ccc(Br)cc1F	-3	·	·	12	-19	19%	-4
CCOCc1nnc(NC(=O)c2ccc3c(c2)OCO3)s1	-1	·	·	1.4	5	-0.2%	-14
O=C(Nc1c2c(nn1-c1ccc(F)cc1)CS(=O)C2)c1ccc2c(c1)OCO2 (stereo not given)	4	0	10%	-0.5	5	0.8%	1

A draw from above in order of number of heavy atoms, ascending.
SMILES	CtBP-E1A inh	TRPV1 potentiator	Sfp PPTase inh	D2 agonist	Six1-Eya2 inh	PINK1 expr mod	D2 potentiator
c1ccc(C2=Nn3c(nnc3-c3cccnc3)SC2)cc1	-14	-2	11%	-0.5	-12	-4.5%[38.3 µM]	-9
O=C(Cc1ccsc1)N1CCc2c([nH]c3ccccc23)C1c1ccccn1 (stereo not given)	-12	-3	-15%	-1.8	-3	0.9%	-1
Cc1ccc(S(=O)(=O)N2CCCCC2)cc1NCC(=O)Nc1ccc(Br)cc1F	-3	·	·	12	-19	19%	-4

Screening results deposited in PubChem by National Center for Advancing Translational Sciences (NCATS).
